Assay outcomes: PubChem BioAssay, several laboratories
Yeast UUG start – alters start codon recognition fidelity in yeast. S. cerevisiae UUG-firefly luciferase reporter, luminescence/redox ratio. activity score, % at 18.7 µM. 350,000 tested, 0.13% active;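 active = replicate mean at a twofold rise or more, about +100% in these data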;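 also: firefly luciferase made from a UUG start codon reports start codon fidelity; reporter light over untreated wells divided by growth signal over untreated wells; some hits fall short of that in this replicate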
Env fusion inh – inhibitors of HIV Env-mediated cell fusion; HeLa-JRFL Env/CEM21 cell fusion, luciferase; inhibition, % at 12.3 µM; 360,000 tested, 1.1% active; AID 651610;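 active = mean replicate inhibition score of at least 50 and every replicate individually at or above 50; inconclusive = only one of the two criteria met; inactive = mean below 50 and not all replicates reaching 50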;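 also: 0% = plate neutral controls and 100% = maraviroc near 300 nM; one replicate is shown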
eIF4H FP inh – inhibitors of RNA binding by human eIF4H; Q15056; eIF4H fluorescence polarization binding assay; inhibition, % at 35 µM; 290,000 tested, 0.94% active; AID 2012;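 active = 50% or more with normal probe brightness, or confirmed in later tests; inconclusive = above 50% with abnormal brightness, or retests that disagree; inactive = below 50% or failed in later tests; about a fifth of its hits are not listed in these tables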;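 also: calls also rest on retests at 20 µM and on dose response follow-up; 0% = protein and probe with vehicle and 100% = probe without protein; strong numbers were not always called active; many hits fall short of the cut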
MT1-MMP act inh – blocks activation of human MT1-MMP | P50281 | HT1080 RFP-PRO-GFP cells, GFP/RFP ratio fluorescence, overnight; percent of plate control window, DMSO zero | GFP/RFP ratio change, % at 20 µM | 360,000 tested, 0.061% active;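 active = GFP/RFP ratio change of at least 30% with cell ATP level not reduced by more than half and red fluorescence within 50% of control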; also: strong numbers were not always called active
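Test system: HT1080 cells expressing an RFP-PRO-GFP fluorescent reporter construct / Compound dosing: single-point 20 µM compound, 1% DMSO / Schedule: cells overnight before dosing, compound overnight, 37 °C, 5% CO2 / Evaluation: GFP/RFP fluorescence ratio / Control set: DMSO and RFP-L50D-GFP cell wells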
Rce1 inhib – yeast Ras-converting enzyme inhibition; 290,000 tested, 0.27% active; yeast membranes, quenched prenylated peptide cleavage fluorescence; calls only;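 active = fall in fluorescence gain of 50% or more versus controls, with final raw signal at or below 3038400; inconclusive = same 50% fall but final raw signal above 3038400; inactive = fall in fluorescence gain under 50%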;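 also: plate controls were neutral control wells for no effect and wells lacking membranes for full effect; tested at 10 µM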
CSC inhib – blocks cancer stem cells; inhibition, % at 7.5 µM; cancer stem cell-like cells viability, luminescence; 300,000 tested, 1.1% active;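 active = mean at 75% or more and at least half the replicates too; inconclusive = mean and replicates disagree; tested in HMLE shEcad cells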;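 also: 0% = median of negative and 100% = median of positive control wells; the first replicate is given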
PABP FP inh – PABP-poly(A) binding inhibition. PABP-poly(A) RNA binding, fluorescence polarization. inhibition, % at 35 µM. 290,000 tested, 1% active. AID 2014;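 active = 50% or more with normal probe brightness, or confirmed in later tests; inconclusive = above 50% with abnormal brightness, or retests that disagree; inactive = below 50% or failed in later tests; about a fifth of its hits are not listed in these tables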;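 also: calls also rest on retests at 20 µM and on dose response follow-up; controls were probe without protein and protein plus probe with vehicle; some compounds called inactive have numbers as strong as hits; many hits fall short of the cut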
Target sequence (P11940 whole entry, looked up): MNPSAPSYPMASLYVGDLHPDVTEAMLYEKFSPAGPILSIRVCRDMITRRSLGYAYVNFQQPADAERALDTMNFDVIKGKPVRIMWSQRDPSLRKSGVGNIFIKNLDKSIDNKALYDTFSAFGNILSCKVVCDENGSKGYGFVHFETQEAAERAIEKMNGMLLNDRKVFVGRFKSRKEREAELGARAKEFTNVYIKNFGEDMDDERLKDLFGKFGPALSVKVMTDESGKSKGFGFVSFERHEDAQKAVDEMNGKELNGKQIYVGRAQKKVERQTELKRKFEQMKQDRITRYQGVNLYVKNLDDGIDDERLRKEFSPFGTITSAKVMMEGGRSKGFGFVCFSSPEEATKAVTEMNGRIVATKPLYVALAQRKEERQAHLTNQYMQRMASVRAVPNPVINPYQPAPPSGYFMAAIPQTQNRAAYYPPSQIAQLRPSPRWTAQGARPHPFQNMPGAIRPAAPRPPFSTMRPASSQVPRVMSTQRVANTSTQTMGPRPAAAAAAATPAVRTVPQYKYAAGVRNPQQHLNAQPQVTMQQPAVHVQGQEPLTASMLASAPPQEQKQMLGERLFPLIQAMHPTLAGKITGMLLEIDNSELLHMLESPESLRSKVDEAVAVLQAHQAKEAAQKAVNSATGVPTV
MT1-MMP act inh RFP – recorded beside MT1-MMP act inh, whose call it bears; RFP signal change, %; measured here: RFP expression control read;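 0 = vehicle wells; hits needed this value within 50% of zero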
* = called active by the depositor; i = inactive; ? = inconclusive; · = no result given; + = active, no number. A portion of the library; the hit share may differ from the screen's.

item	Molecule	Yeast UUG start	Env fusion inh	eIF4H FP inh	MT1-MMP act inh	MT1-MMP act inh RFP	Rce1 inhib	CSC inhib	PABP FP inh
1	Cc1ccc(C)c(N2CCN(C(=O)c3ccc(Cn4c(=S)[nH]c5ccc(N6CCOCC6)cc5c4=O)cc3)CC2)c1	·	18	11	-9	-5	i	25	-8
2	Cc1ccc(C(=O)NCC(=O)N/N=C/c2sccc2C)cc1[N+](=O)[O-]	·	-5	5	-2	-9	i	·	0
3	CCC(C(=O)OC)n1cnc2c(nnn2-c2ccc(OC)cc2)c1=O (stereo not drawn)	-12	-36	-1	2	3	i	1	1
4	COC(=O)c1ccc(Oc2coc3cc(OCc4ccc([N+](=O)[O-])cc4)ccc3c2=O)cc1	·	-7	8	-1	1	i	-1	2
5	Cc1ccc(C(=O)NCC(C)(C)N2CCOCC2)s1	-12	·	-6	1	1	i	2	4
6	Cc1ccc(-n2c(C)c3c(C)nnc(C)c3c2C)cc1C	-13	·	-2	-9	-1	i	-4	-6
7	CC(C)c1ccc(C(C)NCCS(=O)(=O)c2ccc(Br)cc2)cc1 (stereo not drawn)	-22	9	6	-2	0	i	0	7
8	CC(OC(=O)c1ccccc1NCCO)C(=O)NCC(=O)Nc1ccc(F)c(F)c1F (stereo not drawn)	31	16	14	-1	2	i	0	0
9	Cc1ccc(OCC(=O)NCc2cccs2)c([N+](=O)[O-])n1	·	14	0	-1	0	i	-19	3
10	COc1ccc(C(N)c2nccc3cc(OC)c(OC)cc23)cc1OC (stereo not drawn)	-11	·	-11	-6	4	i	9	1
11	CN1CCN(C(=O)c2ccc(-c3ccc(Br)cc3)o2)CC1	-18	-43	·	1	-3	·	44	·
12	COc1ccc(CNCc2cc3c(cc2[N+](=O)[O-])OCO3)cc1	-11	5	46	-6	-2	i	2	36
13	CC1CC(C)CN(CCCNC(=O)c2ccc3c(c2)ncn3C2CCCC2)C1 (stereo not drawn)	-9	4	-14	4	4	i	13	2
14	CN(C)S(=O)(=O)c1ccc(C(=O)NC(=O)CSc2nncs2)cc1	-7	-2	·	3	-1	·	-16	·
15	COc1cccc(-c2cc(N3C(=O)Nc4ccccc4N3O)n[nH]2)c1	1	·	-4	-1	4	i	2	8
16	COc1ccc(CNC(=O)C(c2ccncc2)N(C(=O)Cc2cccs2)c2ccc(C)cc2)cc1 (stereo not drawn)	-9	·	-1	-1	-1	i	-4	4
17	COc1ccc(-c2cc(-c3ccccc3)c(C#N)c(SCC(=O)O)n2)cc1	-16	-1	·	10	-3	i	16	·
18	COc1ccc(Cc2nnc(N/N=C/c3ccc(O)cc3)[nH]c2=O)cc1OC	·	?	22	-10	-12	i	102*	6
19	COC(=O)C1CCN(c2nc3ccccc3nc2C(C#N)C(=O)OCC(C)C)CC1 (stereo not drawn)	·	34	1	-42	-13	·	5	6
20	Fc1ccccc1COc1ccc(Br)cc1CNCc1cccnc1	-32	8	-1	6	-11	i	15	-2
21	CCOc1ccc(CCN2CN(CC)CNC2=S)cc1OCC	·	18	0	0	0	i	-10	48
22	CC(C)Cn1c([N+](=O)[O-])nc2c1c(=O)[nH]c(=O)n2C	6	5	-1	-2	-3	i	22	2
23	Nc1ccc2cn[nH]c2c1	-6	21	2	3	2	i	-14	-12
24	CC(Oc1ccc(Cl)cc1Cl)C(=O)OCC(=O)c1c(N)n(C)c(=O)n(C)c1=O (stereo not drawn)	15	1	·	0	3	·	-7	·
25	CCOC(=O)Cn1c(=O)c(-c2ccccc2N)nc2ccccc21	26	-101	5	-4	2	i	-4	12
26	O=C(COC(=O)c1ccc(Br)o1)NCc1ccc(Cl)cc1	-16	-9	·	-1	0	·	0	·
27	N#Cc1cnn(-c2nc(SCc3ccccc3)nc3sc4c(c23)CCCC4)c1N	25	-88	0	-6	-8	i	-3	-7
28	CC(=O)N1CCN(CCS(=O)(=O)c2cc(Cl)ccc2Cl)CC1	·	-11	·	1	1	·	3	·
29	COc1ccc(C(O)c2nc(-c3ccccc3C)cs2)cc1 (stereo not drawn)	-16	-15	·	-2	-5	·	·	·
30	O=c1c2ccccc2nnn1-c1ccc(Br)cc1	-16	-80	-5	0	-3	i	-19	-13
31	Cc1ccc2nc(Cl)c(CNCc3ccccc3)cc2c1	·	12	0	-2	1	i	10	11
32	CC(C)(C)c1ccc(OCCC(=O)OCC(=O)Nc2cccnc2Cl)cc1	-20	13	·	-1	-1	i	6	·
33	CCOc1ccc(S(=O)(=O)N2CCN(C(=O)CN3C(=O)NC4(CCCC4)C3=O)CC2)cc1	·	-6	·	-15	-8	i	-7	·
34	O=C(NCc1cccs1)c1ccc2c(c1)OCCO2	-28	-100	-1	4	2	i	-2	2
35	C=CCNC(=O)C1CC2Cn3c(nc4ccccc43)C2N1C (stereo not drawn)	-15	-1	2	0	5	i	-3	2
36	COCCNC(=O)CN(Cc1ccc2c(c1)OCO2)C(=O)CCC(=O)Nc1nccs1	·	·	0	0	4	i	-11	-10
37	Cc1cc(=O)[nH]c(SCC(=O)N2CCc3ccccc3C2)n1	1	·	-10	6	0	i	-4	-4
38	Cc1cc(C(=O)OCC(=O)Nc2ccccc2C#N)c(C)o1	-15	1	·	3	1	·	·	·
39	CCn1c(SCC(=O)Nc2cc(OC)c(OC)c(OC)c2)nnc1-c1cccs1	-17	-44	4	11	-3	·	6	-4
40	COc1ccc2c(Cl)c(C(=O)N/N=C3\CCCC(=O)C3)sc2c1	-10	-8	?	-136	2	i	15	14
41	O=C(c1ccco1)N1CCN(S(=O)(=O)c2ccc(F)cc2)CC1	11	11	-11	-1	5	i	-7	0
42	O=C(NNC(=S)NCc1ccccc1)c1ccc2c(c1)OCO2	·	-5	6	-6	-3	i	-55	6
43	Cc1cc(C(F)F)nn1CC(=O)NCc1ccc(Cl)cc1Cl	-13	-16	-5	4	4	i	-14	0
44	CCOC(=O)c1cnc2nc(C(F)(F)F)[nH]n2c1=O	-11	-45	-2	4	7	i	-7	16
45	Cc1nn(C(C)CC(=O)O)c(C)c1Br (stereo not drawn)	-25	·	3	6	7	i	-4	0
46	CNC(=O)NC(=O)CSc1nnc(-c2ccc(F)cc2)n1CC1CCCO1 (stereo not drawn)	0	5	-11	3	1	i	-33	-13
47	c1cncc(-c2nc3cc4ccccc4cc3[nH]2)c1	-23	·	-1	17	-6	i	9	-2
48	C=CCc1cccc(/C=N/c2ncccc2O)c1O	·	·	70*	4	6	i	-4	71*
49	CCn1c(-c2cc(-c3cccc(OC)c3)nc3ccccc23)n[nH]c1=S	-17	·	7	0	-9	i	-1	-11
50	O=C(COc1ccc([N+](=O)[O-])cc1)Nc1ccc(N2CCN(C(=O)c3ccco3)CC2)cc1	-20	6	-3	-2	-9	i	10	1
51	Cc1ccc2cc(NC(=O)C3(C)CCN3C(C)C)ccc2n1 (stereo not drawn)	-2	-2	·	2	5	·	·	·
52	C=CCOc1cccc(C2/C(=C(/O)c3ccccc3)C(=O)C(=O)N2CCN2CCOCC2)c1 (stereo not drawn)	·	-22	-3	-1	3	i	·	8
53	Cc1ccccc1-c1nc2sc3c(c2c(=O)n1N)CCCC3	-28	-79	-1	3	1	i	12	0
54	Cc1cc(N/N=C/c2c(O)ccc3ccccc23)nc(-c2ccccc2O)n1	-7	·	-20	9	-4	i	42	-8
55	Cc1n[nH]c(C)c1CCN(C)Cc1cn(C)nc1-c1ccccc1F	·	-15	9	2	2	i	14	3
56	Cc1sc2nc(-c3ccccc3)oc(=O)c2c1C	-27	-20	-1	2	5	i	-12	-5
57	C=CCn1c(SCC(=O)c2c(N)n(C)c(=O)n(C)c2=O)nnc1-c1ccoc1C	-11	·	·	-2	1	·	-17	·
58	CCCCc1c(O)nc(SCC(=O)N2CCOCC2)n(-c2ccccc2OC)c1=O	-8	-26	-12	-2	-3	·	2	-1
59	COc1cccc(C(C)(O)c2nc(-c3cccc(NC(C)=O)c3)cs2)c1 (stereo not drawn)	1	11	·	-4	-12	·	·	·
60	Cc1ccc(-n2nc3c(=O)n(CCCC(=O)NCc4ccc(F)cc4)nc(C)c3c2C)cc1	-5	12	-2	8	-2	i	-4	-1

Further structures.
item	Molecule	Yeast UUG start	Env fusion inh	eIF4H FP inh	MT1-MMP act inh	MT1-MMP act inh RFP	Rce1 inhib	CSC inhib	PABP FP inh
61	CCCNC(=O)CN1C(=O)NC(Cc2c[nH]c3ccccc23)C1=O (stereo not drawn)	·	4	-6	3	6	i	5	?
62	Cc1coc2cc3oc(=O)c(CCC(=O)NC4CC4)c(C)c3cc12	-16	·	-16	3	-12	·	-2	-9
63	C1=Nc2c(NCc3ccccc3)ncnc2Oc2ccccc21	·	·	3	2	-3	i	7	-9
64	CC(C)C(NC(=O)C1CCCCC1)C(=O)NC1CCCC(C)C1C (stereo not drawn)	-14	·	3	-2	-2	i	-21	11
65	Cc1sc2ncnc(SCc3ccco3)c2c1C	-15	·	-6	0	3	i	-9	-5
66	O=S(=O)(Nc1cccc(-c2ccc(N3CCOCC3)nn2)c1)c1cc(Cl)ccc1Cl	7	·	·	0	-3	i	2	·
67	CN(CCOc1ccccc1)C(=O)CNC(=O)c1ccc(C(C)(C)C)cc1	-21	·	·	1	-3	·	-3	·
68	COc1cc(NC(=O)c2ccc(NC3=NC4CS(=O)(=O)CC4S3)cc2)cc(OC)c1OC (stereo not drawn)	-3	2	-16	0	5	i	·	0
69	CC(C)c1ccc(C(CC(=O)O)N2Cc3ccccc3C2=O)cc1 (stereo not drawn)	-7	9	-5	-2	-2	i	-8	0
70	CCOc1ccc(-n2c(SCC(=O)NCc3ccco3)nc3c(c2=O)SCC3)cc1	-20	-35	0	2	3	·	23	13
71	COc1ccc(Cl)cc1S(=O)(=O)Nc1ncn[nH]1	1	12	-2	1	3	i	-24	0
72	Fc1ccc(-n2nnnc2-c2cnc(-c3cccs3)nc2C(F)(F)F)cc1	·	77*	0	-4	-20	i	22	-2
73	COc1ccc2c(c1)CCC/C2=N\OC(=O)c1ccccc1F	-18	-2	0	0	3	i	-2	-4
74	Cc1sc2ncnc(N3CCC(C(=O)NNC(=O)COc4ccc(Br)cc4)CC3)c2c1C	6	6	·	-5	0	i	-12	·
75	CCC(NC(=O)NC1=NCCS1)(C(F)(F)F)C(F)(F)F	-12	-43	-2	-3	-3	i	4	1
76	COc1ccc(/C=C/c2c([N+](=O)[O-])c(=O)n(C)c(=O)n2C)cc1OC	-14	·	-14	-11	-8	i	-16	-10
77	COc1ccc(N(C)S(=O)(=O)c2cccc(C(=O)NC3CCCC(C)C3C)c2)cc1 (stereo not drawn)	·	-128	·	-14	-14	i	-14	·
78	CCN(CC(=O)Nc1cccc(Br)c1)Cc1nc2ccccc2c(=O)[nH]1	-18	·	0	10	-4	·	·	16
79	Cc1ccc(NC(=O)C2(N3CCC3=O)CCCCC2)cc1	·	-5	-1	-1	3	·	-9	0
80	O=Cc1ccc(N2CCCC2)c(F)c1	-15	i	-9	-1	-6	i	-6	1
81	CCOc1cc(CNCc2ccccn2)cc(Cl)c1OC	-16	3	-4	-11	2	i	2	-12
82	COc1nc(-c2ccccc2)ccc1-c1noc(-c2ccccc2F)n1	1	·	5	-1	-1	+	-7	7
83	CN(C)c1ccc(/C=C(/NC(=O)c2ccccc2)C(=O)N2CCCC2)cc1	-9	21	?	-7	-7	i	·	?
